Env fusion inh: inhibitors of HIV-1 Env-driven cell-cell fusion, primary screen, HeLa-JRFL effector, CEM21 target cells, luciferase; inhibition, % at 12.3 µM; actives 1.1% (n = 360,000); AID 651610, 2012;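 active = mean replicate inhibition score of at least 50 and every replicate individually at or above 50; inconclusive = only one of the two criteria met; inactive = mean below 50 and not all replicates reaching 50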;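 note: 0% = plate neutral controls and 100% = maraviroc near 300 nM; one replicate is shown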
Yeast UUG start: modulators of yeast start codon fidelity, primary screen, whole organism, S. cerevisiae, single point, plate reader. S. cerevisiae UUG-firefly luciferase reporter, luminescence/redox ratio. actives 0.13% (n = 350,000). activity score, % at 18.7 µM;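 active = replicate mean at a twofold rise or more, about +100% in these data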;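 note: firefly luciferase made from a UUG start codon reports start codon fidelity; reporter light over untreated wells divided by growth signal over untreated wells; some hits fall short of that in this replicate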
* hit, by the source's call; i = inactive; u = inconclusive; [ ] = remark or other dose.

Screens in order: Env fusion inh	Yeast UUG start
1. COc1ccc(CN(C)C[C@@H]2OCCCC[C@@H](C)Oc3ccc(NC(=O)c4ccccc4)cc3C(=O)N([C@@H](C)CO)C[C@H]2C)cc1
→ 6[16.7 µM]	3
2. COc1ccccc1C#Cc1cnc2c(c1)C(=O)N([C@@H](C)CO)C[C@@H](C)[C@H](CN(C)C(=O)CN(C)C)O2
→ 4[16.7 µM]	17
3. C[C@@H]1CN([C@@H](C)CO)C(=O)Cc2cc(NC(=O)c3ccncc3)ccc2O[C@H]1CN(C)S(=O)(=O)c1cccs1
→ -2[16.7 µM]	-12
4. COCCCN1C(=O)[C@@]2(Cc3ccccc31)c1ccccc1C(=O)N(C1CCCCC1)[C@H]2c1ccc(CO)cc1
→ 11[16.7 µM]	-18
5. C[C@@H]1CN([C@@H](C)CO)C(=O)c2cc(NC(=O)Cc3ccccc3)ccc2O[C@H]1CN(C)C(=O)Nc1cccc2ccccc12
→ 0[16.7 µM]	3
6. Cc1ccc(S(=O)(=O)N(C)C[C@@H]2OCCCC[C@@H](C)Oc3ccc(NC(=O)c4ccncc4)cc3C(=O)N([C@@H](C)CO)C[C@@H]2C)cc1
→ -10[16.7 µM]	16
7. C[C@@H]1CN([C@H](C)CO)C(=O)Cc2cc(NC(=O)Nc3ccc4c(c3)OCO4)ccc2O[C@@H]1CN(C)C(=O)Nc1cccc2ccccc12
→ 11[16.7 µM]	-11
8. C[C@@H]1CN([C@@H](C)CO)C(=O)c2cc(NC(=O)Nc3cccc4ccccc34)ccc2O[C@@H](C)CCCCO[C@H]1CN(C)C(=O)C1CCCCC1
→ 27[16.7 µM]	-31
9. CC(=O)Nc1ccc2c(c1)C(=O)N(C)[C@H]1CC[C@@H](CC(=O)NCC3CC3)O[C@H]1CO2
→ -4[16.7 µM]	2
10. O=C(Cc1ccncc1)NCC[C@H]1CC[C@H](NC(=O)C2CC2)[C@@H](CO)O1
→ -6[16.7 µM]	9
11. C[C@@H]1CN([C@@H](C)CO)C(=O)Cc2cc(NC(=O)CCC(F)(F)F)ccc2O[C@@H]1CN(C)C(=O)Nc1cccc2ccccc12
→ -3[16.7 µM]	-13
12. C[C@H]1CN([C@@H](C)CO)C(=O)c2cc(/C=C/c3ccccc3)cnc2O[C@@H]1CN(C)C(=O)C1CCOCC1
→ -3[16.7 µM]	1
13. COc1ccc(CN(C)C[C@@H]2OCCCC[C@@H](C)Oc3ccc(NS(=O)(=O)c4ccc(Cl)cc4)cc3C(=O)N([C@H](C)CO)C[C@H]2C)cc1
→ 16[16.7 µM]	48
14. C[C@@H]1CN([C@H](C)CO)C(=O)c2cc(NC(=O)CCC(F)(F)F)ccc2O[C@@H]1CN(C)S(C)(=O)=O
→ -26[16.7 µM]	-7
15. C[C@@H]1CN([C@@H](C)CO)S(=O)(=O)c2ccc(-c3cccc(F)c3)cc2O[C@H]1CN(C)C(=O)C1CC1
→ 4[16.7 µM]	1
16. C[C@H]1CN([C@@H](C)CO)C(=O)c2cc(NC(=O)CCN3CCOCC3)ccc2O[C@H]1CN(C)S(=O)(=O)c1cccs1
→ -16[16.7 µM]	-10
17. C[C@H](CO)N1C[C@H](C)[C@H](CN(C)C(=O)c2ccccn2)Oc2ncc(C#Cc3ccccc3)cc2C1=O
→ 4[16.7 µM]	1
18. COCCNC(=O)C[C@@H]1C[C@H]2c3cc(NC(=O)Nc4ccc(OC)cc4)ccc3O[C@H]2[C@H](CO)O1
→ 17[16.7 µM]	13
19. CN(C)CC(=O)N[C@@H]1CC[C@@H](CCNS(=O)(=O)c2ccccc2)O[C@H]1CO
→ i	2
20. C[C@@H]1CN([C@H](C)CO)C(=O)c2cccc(NC(=O)c3cnccn3)c2O[C@H]1CN(C)CC1CC1
→ -1[16.7 µM]	-8
21. C[C@H]1CN([C@@H](C)CO)C(=O)c2cc(NC(=O)Nc3ccc(F)cc3)ccc2O[C@H]1CN(C)Cc1ccc(C(=O)Nc2ccccc2N)cc1
→ -18[16.7 µM]	2
22. C[C@@H]1CN([C@H](C)CO)S(=O)(=O)c2ccc(C#Cc3ccccc3F)cc2O[C@@H]1CN(C)C(=O)c1ccc2c(c1)OCO2
→ 27[16.7 µM]	-7
23. CN1C(=O)c2cc(NC(=O)Nc3ccccc3F)ccc2OC[C@@H]2O[C@@H](CC(=O)O)CC[C@@H]21
→ 26[16.7 µM]	-1
24. C[C@@H]1CN([C@@H](C)CO)S(=O)(=O)c2ccc(-c3ccccc3)cc2O[C@@H]1CN(C)Cc1ccccc1
→ 52[16.7 µM]	10
25. CCNC(=O)C[C@@H]1CC[C@@H](NC(=O)C2CC2)[C@@H](CO)O1
→ -10[16.7 µM]	15
26. Cc1noc(C)c1NC(=O)NCC[C@@H]1CC[C@@H](NC(=O)Nc2cccc(F)c2)[C@H](CO)O1
→ -1[16.7 µM]	-5
27. CC(C)NC(=O)Nc1ccc2c(c1)C(=O)N([C@H](C)CO)C[C@H](C)[C@H](CN(C)C(=O)Nc1ccc(F)cc1)O2
→ -8[16.7 µM]	-4
28. Cc1ccc(-c2cnc3c(c2)C(=O)N([C@@H](C)CO)C[C@H](C)[C@@H](CN(C)C(=O)Cc2ccncc2)O3)cc1
→ 19[16.7 µM]	-5
29. Cc1ccc(S(=O)(=O)Nc2ccc3c(c2)C(=O)N([C@@H](C)CO)C[C@H](C)[C@@H](CN(C)C(=O)Nc2cccc4ccccc24)OCCCC[C@@H](C)O3)cc1
→ 2[16.7 µM]	-18
30. O=C(NC1CCCC1)N[C@H]1C=C[C@H](CC(=O)N2CCOCC2)O[C@@H]1CO
→ -15[16.7 µM]	-18
31. C[C@@H]1CCCCO[C@H](CN(C)C(=O)NC2CCCCC2)[C@H](C)CN([C@H](C)CO)C(=O)c2cc(NC(=O)C3CCCCC3)ccc2O1
→ 12[16.7 µM]	12
32. C[C@H]1CN([C@@H](C)CO)C(=O)Cc2cc(NC(=O)CCCCCC(=O)Nc3ccccc3N)ccc2O[C@H]1CN(C)C(=O)Nc1ccc(C(F)(F)F)cc1
→ 9[16.7 µM]	-25
33. C[C@@H]1CCCCO[C@H](CN(C)C(=O)CCC(F)(F)F)[C@H](C)CN([C@@H](C)CO)C(=O)c2cc(NC(=O)c3ccccc3)ccc2O1
→ 13[16.7 µM]	11
34. CNC[C@H]1Oc2ncc(-c3cccc(F)c3)cc2C(=O)N([C@@H](C)CO)C[C@H]1C
→ 4[16.7 µM]	10
35. C[C@@H]1CCCCO[C@H](CN(C)Cc2ccc(C(F)(F)F)cc2)[C@H](C)CN([C@H](C)CO)C(=O)c2cc(NC(=O)Cc3ccccc3)ccc2O1
→ 57*[16.7 µM]	5
36. COc1ccc(C#Cc2cnc3c(c2)C(=O)N([C@H](C)CO)C[C@H](C)[C@H](CN(C)CC2CCOCC2)O3)cc1
→ -11[16.7 µM]	0
37. Cc1noc(C)c1NC(=O)Nc1ccc2c(c1)CC(=O)N([C@H](C)CO)C[C@@H](C)[C@H](CN(C)C(=O)Nc1ccccc1)O2
→ -16[16.7 µM]	6
38. CC(C)C#Cc1cnc2c(c1)C(=O)N([C@@H](C)CO)C[C@@H](C)[C@H](CN(C)C(=O)c1ccccn1)O2
→ -13[16.7 µM]	12
39. C[C@@H]1CCCCO[C@@H](CN(C)Cc2ccc(C(F)(F)F)cc2)[C@H](C)CN([C@@H](C)CO)C(=O)c2cc(NS(=O)(=O)c3ccc(F)cc3)ccc2O1
→ 11[16.7 µM]	8
40. Cc1noc(C)c1S(=O)(=O)N(C)C[C@@H]1Oc2ccc(NC(=O)CCCCCC(=O)Nc3ccccc3N)cc2CC(=O)N([C@H](C)CO)C[C@@H]1C
→ 20[16.7 µM]	21
41. CC(C)NC(=O)Nc1cccc2c1O[C@@H](CN(C)C(=O)Nc1ccc(C(F)(F)F)cc1)[C@@H](C)CN([C@@H](C)CO)C2=O
→ 10[16.7 µM]	-1
42. C/C=C/c1cnc2c(c1)C(=O)N([C@@H](C)CO)C[C@@H](C)[C@@H](CN(C)Cc1ccncc1)O2
→ -11[16.7 µM]	-10
43. CS(=O)(=O)Nc1ccc2c(c1)[C@H]1C[C@@H](CC(=O)NCc3ccc(Oc4ccccc4)cc3)O[C@@H](CO)[C@H]1O2
→ -5[16.7 µM]	-5
44. COc1ccc(NC(=O)Nc2ccc3c(c2)CC(=O)N([C@@H](C)CO)C[C@H](C)[C@@H](CN(C)Cc2ccc(-c4ccccc4)cc2)O3)cc1
→ 3[16.7 µM]	-9
45. O=C(C[C@H]1C=C[C@@H](NS(=O)(=O)c2cccc(F)c2)[C@@H](CO)O1)N1CCCCC1
→ 8[16.7 µM]	-16
46. O=C(N[C@@H]1CC[C@H](CCn2cc(-c3ccccn3)nn2)O[C@H]1CO)c1ccccc1
→ 8[16.7 µM]	-4
47. C[C@@H]1CCCCO[C@H](CN(C)C(=O)c2ccncc2)[C@H](C)CN([C@H](C)CO)C(=O)c2cc(NS(=O)(=O)c3ccc(F)cc3)ccc2O1
→ 12[16.7 µM]	4
48. N#C[C@H]1[C@@H](c2ccccc2)[C@@H](CO)N1C(=O)c1cccnc1
→ 10[16.7 µM]	0
49. COc1cccc(C#Cc2cnc3c(c2)C(=O)N([C@H](C)CO)C[C@H](C)[C@@H](CN(C)C(=O)C2CCOCC2)O3)c1
→ -1[16.7 µM]	14
50. CC(C)NC(=O)N(C)C[C@@H]1Oc2c(NC(=O)c3nc4ccccc4s3)cccc2C(=O)N([C@@H](C)CO)C[C@H]1C
→ -2[16.7 µM]	21
51. COC(=O)C[C@@H]1C[C@H]2c3cc(NS(=O)(=O)c4ccc(OC)cc4)ccc3O[C@H]2[C@H](CO)O1
→ 0[16.7 µM]	-7
52. COc1ccc(CN(C)C[C@@H]2OCCCC[C@H](C)Oc3ccc(NS(=O)(=O)c4ccc(C)cc4)cc3C(=O)N([C@@H](C)CO)C[C@H]2C)cc1
→ -9[16.7 µM]	21
53. CCC(=O)N(C)C[C@@H]1Oc2ncc(-c3cccc(OC)c3)cc2C(=O)N([C@@H](C)CO)C[C@H]1C
→ 1[16.7 µM]	1
54. CNC[C@@H]1OCCCC[C@H](C)Oc2ccc(NC(=O)Cc3ccccc3)cc2C(=O)N([C@H](C)CO)C[C@@H]1C
→ 4[16.7 µM]	11
55. C[C@H]1CN([C@@H](C)CO)C(=O)c2cc(NC(=O)CCC(F)(F)F)ccc2O[C@H]1CN(C)CC1CCCCC1
→ -47[16.7 µM]	0
56. COc1ccc(S(=O)(=O)N[C@H]2CC[C@H](CC(=O)NCc3ccccc3F)O[C@H]2CO)cc1
→ 10[16.7 µM]	-3
57. CNC[C@H]1OCCCC[C@H](C)Oc2ccc(NS(=O)(=O)c3ccc(F)cc3)cc2C(=O)N([C@@H](C)CO)C[C@@H]1C
→ 1[16.7 µM]	-1
58. O=C(C[C@H]1C=C[C@@H](NS(=O)(=O)c2ccc(F)cc2)[C@H](CO)O1)NC1CCC1
→ 5[16.7 µM]	0
59. CCC(=O)N(C)C[C@H]1Oc2cc(-c3ccc(F)cc3)ccc2S(=O)(=O)N([C@H](C)CO)C[C@@H]1C
→ 24[16.7 µM]	10
60. C[C@@H]1CCCCO[C@@H](CN(C)Cc2ccc(C(=O)O)cc2)[C@H](C)CN([C@H](C)CO)C(=O)c2cc(NC(=O)Nc3ccccc3)ccc2O1
→ 5[16.7 µM]	-12

Three entries from above, with each value named:
50) CC(C)NC(=O)N(C)C[C@@H]1Oc2c(NC(=O)c3nc4ccccc4s3)cccc2C(=O)N([C@@H](C)CO)C[C@H]1C
  Env fusion inh: -2[16.7 µM]
  Yeast UUG start: 21

51) COC(=O)C[C@@H]1C[C@H]2c3cc(NS(=O)(=O)c4ccc(OC)cc4)ccc3O[C@H]2[C@H](CO)O1
  Env fusion inh: 0[16.7 µM]
  Yeast UUG start: -7

52) COc1ccc(CN(C)C[C@@H]2OCCCC[C@H](C)Oc3ccc(NS(=O)(=O)c4ccc(C)cc4)cc3C(=O)N([C@@H](C)CO)C[C@H]2C)cc1
  Env fusion inh: -9[16.7 µM]
  Yeast UUG start: 21

Gathered by group, the compounds so far containing a thiophene ring, fused or not
Screens in order: Env fusion inh	Yeast UUG start
3. C[C@@H]1CN([C@@H](C)CO)C(=O)Cc2cc(NC(=O)c3ccncc3)ccc2O[C@H]1CN(C)S(=O)(=O)c1cccs1
→ -2[16.7 µM]	-12
16. C[C@H]1CN([C@@H](C)CO)C(=O)c2cc(NC(=O)CCN3CCOCC3)ccc2O[C@H]1CN(C)S(=O)(=O)c1cccs1
→ -16[16.7 µM]	-10

Next part.
Screens in order: Env fusion inh	Yeast UUG start
61. C[C@@H]1CN([C@H](C)CO)C(=O)c2cccc(NC(=O)Nc3ccc(F)cc3)c2O[C@@H]1CN(C)S(=O)(=O)c1cccs1
→ 10[16.7 µM]	15
62. CO[C@@H]1CN(C)C(=O)c2ccc(NC(=O)Cc3ccccc3)cc2OC[C@@H](C)N(C)C[C@@H]1C
→ 5[16.7 µM]	-8
63. COCC#Cc1cnc2c(c1)C(=O)N([C@@H](C)CO)C[C@H](C)[C@H](CN(C)S(=O)(=O)c1cccc(OC)c1)O2
→ 7[16.7 µM]	4
64. C[C@@H]1CN([C@H](C)CO)C(=O)c2cccc(NC(=O)Nc3ccc(F)cc3)c2O[C@@H]1CN(C)Cc1ccccc1
→ -8[16.7 µM]	-5
65. COc1ccccc1-c1ccc2c(c1)O[C@@H](CN(C)S(=O)(=O)c1ccccc1)[C@@H](C)CN([C@@H](C)CO)S2(=O)=O
→ u	7
66. C[C@H](CO)N1C[C@H](C)[C@@H](CN(C)C(=O)Nc2ccc(F)cc2)Oc2cc(C#CC3(O)CCCC3)ccc2S1(=O)=O
→ -118[16.7 µM]	0

Assay outcomes: PubChem, Broad Institute

The list is partial. The share of hits here may be higher or lower than overall.
